# Bioassay records (PubChem BioAssay)
# SARS PLpro yeast: qHTS of Yeast-based Assay for SARS-CoV PLP. S. cerevisiae expressing SARS-CoV PLpro, growth rescue; control for the full effect not named in the record. Potency, µM (series often up to 32.9 µM), for the others: at the top dose activity, positive = growth rescue. 330,000 compounds, 0.19% hits; note: 0% is about no effect; nearly all actives have a fitted effect of over 55% in size; growth read by luminescence after 48 h
# NS1 function inh: qHTS Assay for Inhibitors of Influenza NS1 Protein Function. S. cerevisiae slowed by influenza A NS1, growth recovery by OD600. Potency, µM (series often up to 46.1 µM), inactives show top-dose activity, positive = more growth. 270,000 compounds, 0.4% hits. AID 2326, 2010; note: actives are rising curves; nearly all actives have a fitted effect of over 50% in size
#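 OD600 was taken as the measure of yeast growth restored by compound in an NS1-expressing S. cerevisiae strain. Cells had been washed out of glucose medium and diluted 1:100 into galactose -URA medium, pH 6.0.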
# LASV entry inh: qHTS for Inhibitors of binding or entry into cells for Lassa Virus. Lassa virus pseudotype entry inhibition, cell reporter; control for the full effect not named in the record. Potency, µM (series often up to 37.9 µM), for inactives: top-dose activity change, negative = inhibition, actives largely listed as inhibitors. 300,000 compounds, 1.2% hits; active means well fitted inhibition curve with a large enough effect; inconclusive means small, poorly fitted or top-dose-only effect, or effect the other way; inactive means flat fitted curve, though single readings scatter; tested in HEK293 cells; note: % is set by controls: 0 for no effect and ±100 for the full control effect; nearly all actives have a fitted effect of over 50% in size; luciferase read-out
# 2A StopGo: High Throughput Screening for Foot and Mouth Disease Virus Antivirals; 410,000 compounds, 1.2% hits; human cells with a luciferase reporter of 2A StopGo recoding; control for the full effect not named in the record; Potency, µM (series often up to 57.9 µM), without a hit: at the top dose signal change, negative = less light; active = well fitted falling curve with a large enough effect; inconclusive = small, poorly fitted or top-dose-only effect; inactive = no such curve, though single readings can be large or run the other way; tested in HEK293T cells; note: % is set by controls: 0 for no effect and ±100 for the full control effect; nearly all actives have a fitted effect of over 45% in size; luciferase light after 4 h
# RE007 growth inh: qHTS Assay for Inhibitors of the HIV-1 protein Vpr | S. pombe RE007 Vpr strain, BacTiter-Glo ATP luminescence, 24 h; control for the full effect not named in the record | Potency, µM (highest dose often 92.2 µM), for the others: at the top dose activity change, negative = less growth | 360,000 compounds, 0.21% hits | AID 651644, 2012; active = well fitted falling curve with a large enough effect; inconclusive = small, poorly fitted or top-dose-only effect; inactive = no such curve, though single readings can be large or run the other way;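 note: % is set by controls: 0 for no effect and ±100 for the full control effect; nearly all actives have a fitted effect of over 50% in size; the assay follows cell death caused by Vpr and the record does not say whether a fall means rescue or toxicity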
#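 Fission yeast RE007 carrying one integrated HIV-1 vpr copy, seeded at OD 0.01 in PMG+AL medium with 23 nL pinned compound. Grown 24 h at 30 degrees; viability read by BacTiter-Glo luminescence after 5 min.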
# Cruzain inh Det: qHTS Assay for Promiscuous and Specific Inhibitors of Cruzain (with detergent) | purified cruzain, Z-FR-AMC fluorescence, 0.01% Triton | Potency, µM, for the others: max response, negative = inhibition, usual class: inhibitors | 200,000 compounds, 0.43% hits | AID 1478, 2009; active = well fitted curve in the direction sought with a large enough effect; inconclusive = small, poorly fitted or top-dose-only effect, or another doubt; inactive = no such curve, though single readings can be large; an effect the other way counts as inactive or inconclusive;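 note: plate controls were neutral wells for no effect and buffer without enzyme for full effect; nearly all actives have a fitted effect of over 40% in size; top concentration of the series not given in the record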
# Target sequence (P25779 123-467 limits assumed): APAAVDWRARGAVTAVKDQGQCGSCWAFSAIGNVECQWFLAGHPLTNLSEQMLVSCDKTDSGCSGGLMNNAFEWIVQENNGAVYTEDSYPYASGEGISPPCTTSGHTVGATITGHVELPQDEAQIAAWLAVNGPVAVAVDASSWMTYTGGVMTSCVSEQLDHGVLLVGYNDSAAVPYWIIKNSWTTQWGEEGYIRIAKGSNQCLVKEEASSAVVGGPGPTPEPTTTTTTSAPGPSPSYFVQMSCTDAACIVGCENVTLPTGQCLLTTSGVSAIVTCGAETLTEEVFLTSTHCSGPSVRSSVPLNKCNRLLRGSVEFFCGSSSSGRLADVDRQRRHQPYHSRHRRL
#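 15 min RT preincubation of 1.5 nM cruzain with compound, then 2 uM Z-FR-AMC added; kinetic AMC fluorescence, 60 s delta. Triton X-100 0.01%, pH 5.5.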
# Cruzain noTriton: qHTS Assay for Promiscuous and Specific Inhibitors of Cruzain (without detergent); 200,000 compounds, 2.3% hits; purified cruzain, Z-FR-AMC fluorescence, no detergent; Cruzipain (Trypanosoma cruzi), P25779; Potency, µM, without a hit: max response, negative = inhibition, actives largely listed as inhibitors; active = well fitted curve in the direction sought with a large enough effect; inconclusive = small, poorly fitted or top-dose-only effect, or another doubt; inactive = no such curve, though single readings can be large; an effect the other way counts as inactive or inconclusive;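 note: plate controls were enzyme without inhibitor for no effect and buffer without enzyme for full effect; nearly all actives have a fitted effect of over 40% in size; top concentration of the series not given in the record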
#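 Detergent-free condition (0.00005% Triton X-100) in acetate buffer pH 5.5 with DTT. 1.5 nM enzyme and compound were pre-mixed 15 min, then 2 uM Z-FR-AMC substrate added; reaction progress from fluorescence change between first and third reads (60 s).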
# Marburg entry inh: qHTS for inhibitors of binding or entry into cells for Marburg Virus. 300,000 compounds, 1.8% hits. Marburg virus pseudotyped entry inhibition, cell reporter; control for the full effect not named in the record; about a third of the inactives were read at about 46 µM. Potency, µM (series often up to 37.8 µM), for inactives: top-dose activity change, negative = inhibition, hits mostly inhibitors; active = well fitted inhibition curve with a large enough effect; inconclusive = small, poorly fitted or top-dose-only effect, or effect the other way; inactive = flat fitted curve, though single readings scatter; tested in HEK293 cells; about a fifth of its hits are not listed in these tables; note: % is set by controls: 0 for no effect and ±100 for the full control effect; luciferase read-out
# Starred values were filed as active, the others as inactive; ? = inconclusive; nt = no result given; & = joins results of further samples; [ ] = another dose, or the depositor's remark. Unless noted, calls come from the whole dose curve; as a rule, active means well fitted rising curve with a large enough effect; inconclusive means small, poorly fitted or top-dose-only effect; inactive means no such curve, though single readings can be large or run the other way. Potency is the fitted concentration of half-maximal effect.
SMILES,SARS PLpro yeast,NS1 function inh,LASV entry inh,2A StopGo,RE007 growth inh,Cruzain inh Det,Cruzain noTriton,Marburg entry inh
O=C1CC(NS(=O)(=O)c2cccs2)CN1c1ccc(Cl)cc1 (configuration not stated),3%,nt,-24%,-11%,-1%,nt,nt,15%[46.1 µM]
C=Cc1ccc(CSc2nc(-c3ccccc3C)nc3c2Cc2c(CO)cnc(C)c2O3)cc1,nt,nt,-1%[46.1 µM],?,nt,-1.8%,7%,nt
O=C(Nc1nnc(SCC(=O)N2CCCCC2)s1)c1c(F)cccc1F,7%,6%,11%,-15%,1%,nt,nt,17%[46.1 µM]
Cc1cc(C)c2c(n1)sc1c(N3CCN(CCO)CC3)ncnc12,-8%,-2%,16%[14.3 µM],6%,-3%,-4.5%,0%,23%
O=C1CCc2cc(S(=O)(=O)N3CCN(C(=O)c4ccco4)CC3)ccc2N1,4%,12%,2%,0%,-2%,4.5%,-4%,12%
Cc1cc([N+](=O)[O-])cnc1N1CCOCC1,-3%,7%,6%,-13%,5%,-7.1%,-7%,?
CC(OC(=O)c1ccc2c(=O)n3c(nc2c1)CCCCC3)C(=O)Nc1ncc(Cl)cc1Cl (configuration not stated),-2%,0%,-7%,-11%,4%,-2.4%,-2%,?
Cc1n[nH]c(C)c1C(=O)CC1(O)C(=O)N(CCc2ccccc2)c2ccc(Cl)cc21 (configuration not stated),-1%,-9%,-23%,-1%,25%,-1.4%,?,?
COc1ccc(NC(=O)C(=O)Nc2cccc3cccnc23)c(OC)c1,-3%,7%,nt,-6%,3%,nt,nt,nt
COc1ccc(N2CCN(c3oc(/C=C/c4ccccc4OC)nc3C#N)CC2)cc1,nt,nt,16%[46.1 µM],-17%,nt,1.7%,-7%,11%[46.1 µM]
CC(NC(=O)COc1ccc(Oc2ccccc2)cc1)C(=O)O (configuration not stated),4%,5%,-2%,13%,5%,2.8%,5%,0%
O=C(O)/C=C/c1ccc(OCCCF)cc1,2%,nt,16%,-4%,16%,nt,nt,20%[46.1 µM]
O=C(Nc1ccc(Oc2ccsc2C(=O)O)cc1)c1ccccc1,1%,4%,nt,4%,10%,nt,nt,nt
CCOC(=O)c1c(NC(=O)CN2CCN(C)CC2)sc(C(=O)Nc2ccccc2)c1C,-1%,0%,-23%,17%,-29%,nt,nt,?
COc1ccc(CCN=C2SCC(=O)N2Cc2ccccc2)cc1OC,0%,nt,?,?,7%,nt,nt,?
Cc1onc(-c2ccccc2)c1C(=O)NCc1ccccc1F,2%,-1%,-9%,7%,-2%,nt,nt,3%[46.1 µM]
Cc1cccc(-n2cc(-c3ccccc3)c3c(NC4CCCC4)ncnc32)c1,nt,nt,-23%[46.1 µM],-27%,nt,0.4%,-12%,nt
CCOC(=O)c1cc2c(C)[nH]c(C)c2cc(C(=O)OCC)c1=O,-1%,-3%,7%[46.1 µM],-7%,8%,nt,nt,9%[46.1 µM]
Cc1cc(C)cc(N(C(=O)CNC(=O)c2ccco2)C(C(=O)NC2CCCCC2)c2cccnc2)c1 (configuration not stated),-1%,2%,0%,-1%,-10%,nt,nt,26%[46.1 µM]
CC(C)c1ccc(S(=O)(=O)N2CCN(C(=O)c3ccc(N4CCCC4)c([N+](=O)[O-])c3)CC2)cc1,6%,-4%,?,-5%,0%,nt,nt,?
COc1ccccc1-c1coc2c(CN3CCN(CCO)CC3)c(O)ccc2c1=O,nt,nt,1%,-17%,-14%,nt,nt,5%
CC(C)C1N(C(=O)N2CCOCC2)CCN1S(=O)(=O)c1ccccc1 (configuration not stated),1%,4%,nt,-9%,26%,nt,nt,4%[46.1 µM]
Cc1nn(Cc2ccccc2Cl)c2sc(C(=O)NCc3ccc4c(c3)OCO4)cc12,1%,?,-16%,20%,0%,-5.4%,?,-10%
Cc1ccc(C)c(NC(=O)CCn2cnnn2)c1,2%,4%,?,-15%&3%,-2%,-2.9%,8%,13%
Nc1ccccc1C(=O)c1ccccc1,-3%,-4%,nt,-12%,-5%,-0.6%,-2%,nt

# Overlap with the part before: seven entries; new compounds follow.
SMILES,SARS PLpro yeast,NS1 function inh,LASV entry inh,2A StopGo,RE007 growth inh,Cruzain inh Det,Cruzain noTriton,Marburg entry inh
Cc1cc(C)cc(N(C(=O)CNC(=O)c2ccco2)C(C(=O)NC2CCCCC2)c2cccnc2)c1 (configuration not stated),-1%,2%,0%,-1%,-10%,nt,nt,26%[46.1 µM]
CC(C)c1ccc(S(=O)(=O)N2CCN(C(=O)c3ccc(N4CCCC4)c([N+](=O)[O-])c3)CC2)cc1,6%,-4%,?,-5%,0%,nt,nt,?
COc1ccccc1-c1coc2c(CN3CCN(CCO)CC3)c(O)ccc2c1=O,nt,nt,1%,-17%,-14%,nt,nt,5%
CC(C)C1N(C(=O)N2CCOCC2)CCN1S(=O)(=O)c1ccccc1 (configuration not stated),1%,4%,nt,-9%,26%,nt,nt,4%[46.1 µM]
Cc1nn(Cc2ccccc2Cl)c2sc(C(=O)NCc3ccc4c(c3)OCO4)cc12,1%,?,-16%,20%,0%,-5.4%,?,-10%
Cc1ccc(C)c(NC(=O)CCn2cnnn2)c1,2%,4%,?,-15%&3%,-2%,-2.9%,8%,13%
Nc1ccccc1C(=O)c1ccccc1,-3%,-4%,nt,-12%,-5%,-0.6%,-2%,nt
COc1ccc(C2CCCN2C(=S)Nc2ccc(C)cc2C)cc1OC (configuration not stated),10%,nt,-2%[46.1 µM],?,5%,nt,nt,?
Cn1c2c(c(=O)n(C)c1=O)C(c1ccc(Br)cc1)Nc1ccccc1O2 (configuration not stated),2%,-5%,4%,-10%,11%,-8.1%,-13%,-3%
O=C(NNC(=O)c1cccs1)c1cccnc1,0%,16%,17%[46.1 µM],12%,3%,nt,nt,-2%[46.1 µM]
O=c1oc2ccccc2n1CCCOc1ccccc1Cl,nt,nt,?,58%[activator],nt,-5.3%,-4%,8%[46.1 µM]
CC(=O)Nc1ccc(SCc2c(C)noc2C)cc1,-1%,-2%,nt,-17%,8%,nt,nt,nt
Cn1c(=O)n(C)c2cc(C(=O)O)ccc21,1%,-2%,9%,-9%,38%,3.0%,8%,2%
O=C(Nc1ccccc1N1CCCCC1)c1ccc(OC(F)F)cc1,-8%,-5%,3%[46.1 µM],-18%,18%,nt,nt,-22%[46.1 µM]
CCC(Oc1ccccc1)C(=O)Nc1ccc(C)c(S(=O)(=O)N2CCOCC2)c1 (configuration not stated),-1%,nt,?,11%,1%,nt,nt,?
COc1cccc(N2CC(=O)N(NC(=O)CSc3nc(C)cc(C)c3C#N)CC2=O)c1,1%,10%,-1%,-5%,4%,-1.3%,-5%,?
CCSc1ncc(Cl)c(C(=O)Nc2nc3ccc(Cl)cc3s2)n1,nt,nt,?,-11%,nt,-1.7%,3%,?
CCN(CC(=O)Nc1cccc(OC)c1)CC(=O)Nc1ccc(Br)c(C)c1,-5%,-10%,nt,-16%,30%,nt,nt,nt
CCOC(=O)C1CCN(C(=O)Cn2ncc3c4ccccc4n(C)c3c2=O)CC1,nt,nt,-7%[46.1 µM],-4%,nt,-3.8%,9%,-29%[46.1 µM]
COc1cccc(N(C(=O)CNC(=O)c2ccco2)C(C(=O)NC2CCCCC2)c2ccncc2)c1 (configuration not stated),-13%,-8%,1%,13%,-2%,6.8%,11%,2%
C/C(CCc1ccccc1)=N\NC(=O)COc1ccccc1C,0%,-3%,nt,-1%,7%,nt,nt,?
Cn1c(C(=O)c2ccccc2)nc2ccccc21,1%,3%,nt,49%[activator],-7%,nt,nt,nt
O=C(NCCSCc1ccccc1Cl)C1CCN(S(=O)(=O)Cc2ccccc2)CC1,nt,nt,-9%[46.1 µM],-18%,nt,-4.1%,-13%,1%[46.1 µM]
O=C(N/N=C/c1cn(-c2ccccc2)nc1-c1ccc2c(c1)OCCO2)c1ccncc1,0%,nt,-14%,20%,-6%,nt,nt,13%[46.1 µM]
CCOc1ccccc1NC(=O)Nc1cccc(NC(C)=O)c1,0%,-2%,-13%[46.1 µM],-12%,-19%,nt,nt,6%[46.1 µM]
COc1ccc(-c2noc(-c3ccc(NC4CCCCC4)c([N+](=O)[O-])c3)n2)cc1,nt,nt,19%[46.1 µM],-24%,nt,-1.1%,2%,-9%[46.1 µM]
O=C(CSc1nnc2scc(-c3ccccc3)n12)Nc1nsc(-c2ccc(Cl)cc2)n1,nt,13%,11%,?,-11%,nt,nt,?
COc1ccc(-c2noc(CSc3nnc(-c4ccncc4)n3-c3ccc(OC)cc3)n2)cc1,nt,nt,-21%[46.1 µM],0%,nt,2.0%,?,2%[46.1 µM]
O=C(CN1C(=O)c2ccccc2C1=O)NCC(=O)Nc1ccccc1,nt,nt,11%,-12%,8%,nt,nt,21%
Cc1nc(C)c(C(=O)N/N=C/c2cc(Br)ccc2O)s1,3%,-2%,nt,-1%,12%,nt,nt,nt
Cc1ccc2nc(Cl)c3cc(C(=O)N(C)C4CCCCC4)sc3c2c1,nt,nt,1%[46.1 µM],-9%,nt,-3.1%,-12%,10%[46.1 µM]
CCN(c1ccccc1)S(=O)(=O)c1ccc2c(c1)CCCN2C(C)=O,14%,1%,?,-3%,-7%,nt,nt,9%[46.1 µM]
COc1cc(NC(=O)c2cc(OC)c(OC)c(OC)c2)c(OC)cc1NC(=O)CN1CCCCC1,0%,-9%,-24%,-10%,-11%,-1.5%,-1%,?
CCOC(=O)c1c(C)oc2ccc(OCc3cc(C(=O)OC)oc3C)cc12,4%,11%,?,?,9%,-5.0%,?,?
CCN1C(=O)C2(SC(NC(C)=O)=NN2C(C)=O)c2cc(C)ccc21 (configuration not stated),-2%,4%,17%,nt,-6%,2.8%,-2%,11%
